From PubChem BioAssay
KCNQ2 pot = potentiators of rat KCNQ2 potassium channel. actives 0.54% (n = 310,000). B-score at 10 µM. O88943. AID 2239. CHO-K1 KCNQ2, FluxOR thallium flux fluorescence; hits give high values;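 active means fluorescence ratio B-score at least 3 SD of library B-scores, with initial fluorescence B-score within 3 SD, cut at about 5.3 in these data; same plate scores as AID 2156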;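 further: B-score of peak minus minimum over baseline fluorescence ratio after K+ and Tl+ stimulus; positive B-score means potentiation of KCNQ2 with more thallium influx and brighter signal; only the inactives scoring about 0 or higher are listed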
Target sequence (O88943 whole entry, looked up): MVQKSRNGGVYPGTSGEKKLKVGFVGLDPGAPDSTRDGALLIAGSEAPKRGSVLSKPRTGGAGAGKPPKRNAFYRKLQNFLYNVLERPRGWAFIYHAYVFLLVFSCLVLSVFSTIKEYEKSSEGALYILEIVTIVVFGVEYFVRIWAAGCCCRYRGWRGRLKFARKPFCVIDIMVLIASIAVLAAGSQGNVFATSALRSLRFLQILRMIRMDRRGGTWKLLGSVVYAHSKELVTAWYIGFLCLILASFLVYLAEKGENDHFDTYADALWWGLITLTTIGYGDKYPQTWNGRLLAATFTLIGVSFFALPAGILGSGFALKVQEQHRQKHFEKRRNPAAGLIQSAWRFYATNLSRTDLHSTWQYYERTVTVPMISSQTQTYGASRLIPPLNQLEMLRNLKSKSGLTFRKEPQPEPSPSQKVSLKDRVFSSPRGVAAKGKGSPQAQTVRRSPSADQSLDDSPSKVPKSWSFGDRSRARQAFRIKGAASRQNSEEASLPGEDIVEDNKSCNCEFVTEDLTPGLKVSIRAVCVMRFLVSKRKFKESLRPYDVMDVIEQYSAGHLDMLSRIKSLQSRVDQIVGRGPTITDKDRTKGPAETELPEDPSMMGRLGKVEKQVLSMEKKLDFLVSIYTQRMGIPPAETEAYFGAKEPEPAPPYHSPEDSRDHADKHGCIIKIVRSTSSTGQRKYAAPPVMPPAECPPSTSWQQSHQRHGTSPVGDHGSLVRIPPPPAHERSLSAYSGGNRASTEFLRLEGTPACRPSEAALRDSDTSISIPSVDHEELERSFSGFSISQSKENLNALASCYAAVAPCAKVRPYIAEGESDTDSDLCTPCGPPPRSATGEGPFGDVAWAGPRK
KCNQ2 pot baseline = recorded beside KCNQ2 pot, whose call it bears; B-score; compound at 10 µM; measured here: initial fluorescence intensity artifact check;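 brightness before thallium and not channel activity; 0 = typical well and far values either way flag optical interference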
Starred values were filed as active, the others as inactive. These rows are one share of the data (hit frequency here may not be typical).

The opening five entries (preview)
Under each structure: KCNQ2 pot | KCNQ2 pot baseline
- Cc1nc2c(sc3nc(N4CCOCC4)c4c(c32)CC(C)(C)OC4)c(-c2ccccc2)c1C(=O)O
  0.22 | -0.35
- Cc1cccn2c(=O)c(C=O)c(Nc3ccccc3)nc12
  1.1 | 0.36
- COc1ccc(NC(=O)CCNS(=O)(=O)c2cccc3nsnc23)c(OC)c1
  1.1 | -0.11
- COc1cc(CNn2cn[nH]c2=S)ccc1OCC(=O)NC(C)(C)C
  0.31 | 0
- O=C(N/N=C/c1ccccc1[N+](=O)[O-])c1ccc2c(c1)OCCO2
  0.04 | -0.04

The listing, from the first entry:
Under each structure: KCNQ2 pot | KCNQ2 pot baseline
- Cc1nc2c(sc3nc(N4CCOCC4)c4c(c32)CC(C)(C)OC4)c(-c2ccccc2)c1C(=O)O
  0.22 | -0.35
- Cc1cccn2c(=O)c(C=O)c(Nc3ccccc3)nc12
  1.1 | 0.36
- COc1ccc(NC(=O)CCNS(=O)(=O)c2cccc3nsnc23)c(OC)c1
  1.1 | -0.11
- COc1cc(CNn2cn[nH]c2=S)ccc1OCC(=O)NC(C)(C)C
  0.31 | 0
- O=C(N/N=C/c1ccccc1[N+](=O)[O-])c1ccc2c(c1)OCCO2
  0.04 | -0.04
- Cc1ncoc1C(=O)Nc1ccccc1-c1ccccc1
  0.42 | 2.5
- C/C(=N\NC(=O)c1ccc(Cl)cc1)c1ccccn1
  0.16 | 1.1
- O=C(NCC1CCCO1)c1onc(CSc2cccc3ccccc23)c1C(=O)O (stereo unspecified)
  0.19 | -0.62
- O=C(C[n+]1ccc(C(=O)c2ccccc2)cc1)Nc1ccc(C(F)(F)F)cc1
  0.96 | 0.77
- COc1ccc(CN2CCC(CNC(=O)NC3CCCCC3)CC2)cc1
  0.1 | 0.17
- CCOc1cc(/C=N/Nc2ncnc(Cl)c2N)ccc1O
  1.2 | -0.44
- CC(=O)Nc1ccc(NC(=O)c2ccnn2C)cc1
  0.05 | -0.44
- Cc1cc2cc3c(cc2nc1SCC(=O)O)CCC3
  1.3 | 0.49
- O=C(Nc1ccc2c(c1)OCO2)c1cccc2c1C(=O)N(Cc1cccnc1)C2
  0.11 | -0.28
- O=C(Nc1ccccc1)c1ccncc1
  0.02 | -0.58

(list continues)
Under each structure: KCNQ2 pot | KCNQ2 pot baseline
- CCOC(=O)c1oc2c(c1C)C(=O)CCC2
  0.41 | 0.01
- COc1ccc(C2=CSC3=NCCN23)cc1OC
  0.26 | -1
- CCCCCCNC(=O)CC(c1ccccc1)c1cc(Br)ccc1O (stereo unspecified)
  29* | -0.13*
- CC(C)CNC(=O)COC(=O)c1cccc(S(=O)(=O)NCC(F)(F)F)c1
  0.81 | 0.88
- O=C(CCCCCn1c(=O)[nH]c2ccccc2c1=O)N1CCN(Cc2ccc3c(c2)OCO3)CC1
  1.9 | -1.4
- CC1CCCN(C(=O)C(=O)c2cn(CC(=O)N3CCCCCC3)c3ccccc23)C1 (stereo unspecified)
  1.6 | -0.87
- CCOC(=O)N1CCC(NC(=O)CCC(=O)N2CC(C)Oc3ccccc32)CC1 (stereo unspecified)
  0.07 | -0.11
- O=C(Nc1cccc(-c2cnc3ccccc3n2)c1)c1ccco1
  0.21 | 1.7
- CNC(=O)CSc1nc2c([nH]c3ccccc32)c(=O)n1CCOC
  1.2 | 0.74
- COCc1nnc(NS(=O)(=O)c2ccccc2)s1
  0.99 | 1.6
- CC(C[N+](C)(C)C)OC(N)=O (stereo unspecified)
  0.34 | -3.2
- CCOC(=O)N1CCN(CCC(=O)Nc2ccc(C)cc2)CC1
  1.2 | 0.03
- CCC1Oc2ccccc2N(CC(=O)NCCCN2CCC(C)CC2)C1=O (stereo unspecified)
  0.25 | 1.4
- O=C(O)/C=C/c1ccc(S(=O)(=O)Nc2ccc(OCc3ccccc3)cc2)cc1
  1.6 | -1
- COC(=O)c1sccc1NC(=O)c1ccc(OC)c(OC)c1
  0.15 | -1.8

Later entries:
Under each structure: KCNQ2 pot | KCNQ2 pot baseline
- COc1ccc(OCCCC(=O)NNC(=O)CCN2CCN(c3ccccc3)CC2)cc1
  0.44 | -0.78
- COC(=O)c1c(C)[nH]c(C)c1-c1cccc([N+](=O)[O-])c1
  0.57 | 0.43
- Cc1c(C)c2c(OCC(=O)N3CCC[C@H]3C(=O)O)cc3c(c2oc1=O)CCC(C)(C)O3
  0.85 | 0.24
- O=C(c1ccccc1)N1CCN(C(=S)NCc2ccc3c(c2)OCO3)CC1
  1.9 | 1.4
- COc1ccc(-c2nc(-c3cccs3)c(-c3cccs3)[nH]2)cc1OC
  0.2 | -1.9
- CSc1nc(-c2ccccc2)nc(NC(=O)c2ccccc2)c1C(C)=O
  2.4 | -0.11
- O=S(=O)(NCc1cccnc1)c1ccc(Cl)c(Cl)c1Cl
  0.02 | 0.06
- C=C(c1ccc(OC)cc1)c1ccc(OC)cc1
  0.08 | -0.54
- NS(=O)(=O)c1ccc(CCNC(=O)CCCOc2ccccc2)cc1
  0.05 | 2
- CCOC(=O)Cc1n[nH]c(=O)c2ccccc12
  1.6 | 0.06
- c1cc(CN2CCN(C3CCCCCC3)CC2)ccn1
  0.34 | -0.24
- Cc1ccc2[nH]c3c(=O)n4c(nc3c2c1)SCC4
  0.85 | 2
- Cn1c(=O)oc2cc(S(=O)(=O)N3CCC(C(=O)NCCc4ccccc4)CC3)ccc21
  0.07 | -2.2
- Cc1ccc2c(C)c(C(=O)NCCN3CCCC(O)C3)oc2c1C (stereo unspecified)
  0.72 | -0.01
- COc1ccc(NC(=O)C2(c3ccc(NC(=O)c4ccc(OC(C)=O)cc4)cc3)CCCC2)cc1
  0.89 | 0.06

Following part
Under each structure: KCNQ2 pot | KCNQ2 pot baseline
- O=C(CN1C(=O)/C(=C/c2ccc(F)cc2)SC1=S)N1CCN(CCc2ccccn2)CC1
  0.15 | -1.9
- Cc1cccc(CN2CCc3c([nH]c4ccccc34)C2)c1
  1.5 | -1.5
- Cc1cc2ncn(S(=O)(=O)c3ccc(S(=O)(=O)N4CCOCC4)cc3)c2cc1C
  0.03 | 0.5
- CC1CCCC(NC(=O)CCCn2c(=O)[nH]c3cc(Cl)ccc3c2=O)C1C (stereo unspecified)
  0.9 | -0.86
- O=C(NC(=S)Nc1cc([N+](=O)[O-])ccc1O)c1ccc2c(c1)OCO2
  0.01 | -0.15
- O=C(Nc1ccc2c(c1)OCO2)OCc1ccccc1
  0.58 | 0.07
- O=C(CNC(=O)c1ccc2c(c1)OCCO2)N/N=C/c1ccc(O)cc1O
  0.77 | 0.29
- COCCCNC(=S)Nc1ccc2c(c1)OCCO2
  0.39 | -0.27
- CC(=O)c1sc(=S)n(-c2ccccc2)c1C
  1.2 | -0.53
- COc1ccccc1N1CCN(C(=O)c2cc(C)oc2C)CC1
  0.25 | 0.38
- CCOC(=O)CSCC(=O)Nc1ccc(S(=O)(=O)N2CCCCC2)cc1
  0.19 | -1.2
- COc1ccc(-n2ccsc2=S)cc1
  0.52 | -1.5
- COC(=O)c1ccc2c(=O)n(CCCN3CCCC3=O)c(=S)[nH]c2c1
  0.05 | -0.07
- Cc1ccc(-n2c(P(C)(=O)O)nc3ccccc32)cc1
  0.52 | -1.7
- CC(=O)Nc1ccc(N2CCCCC2)c(C(=O)Nc2cccc(C)c2)c1
  2.4 | 0.22

The last three compounds of the part above lead into the next:
Under each structure: KCNQ2 pot | KCNQ2 pot baseline
- COC(=O)c1ccc2c(=O)n(CCCN3CCCC3=O)c(=S)[nH]c2c1
  0.05 | -0.07
- Cc1ccc(-n2c(P(C)(=O)O)nc3ccccc32)cc1
  0.52 | -1.7
- CC(=O)Nc1ccc(N2CCCCC2)c(C(=O)Nc2cccc(C)c2)c1
  2.4 | 0.22
- CCOC(=O)c1csc(NC(=O)c2cc(OC)c(OC)c(OC)c2)n1
  2.1 | -0.18
- O=c1cc(O)nc(SCc2ccccc2)[nH]1
  1.1 | 0.14
- COC(=O)N/N=C/c1ccccc1OCc1ccccc1
  0.18 | 0.85
- Cc1cc2c(C)nc(N/N=C/c3ccc(F)cc3)nc2o1
  0.5 | -0.22
- Nc1ccc(Oc2ccc([N+](=O)[O-])cc2[N+](=O)[O-])cc1
  0.11 | 0.15
- CN(CC(=O)Nc1ccccc1Br)C(=O)CCCSc1nc2ccccc2[nH]1
  1.1 | 1.3
- CC(C)(C)NC(=O)/C(=C\c1ccco1)NC(=O)c1cccs1
  0.43 | -0.33
- C=CCn1c(=O)c2c(nc3n2CC(C)CN3Cc2ccccc2)n(C)c1=O (stereo unspecified)
  0.7 | -0.63
- COc1ccc(N2C(=O)CCC(C(C)=O)=C2C)cc1
  0.05 | -0.2
- CCN1C(=O)c2ccc(C(=O)Nc3c(C)cc(C)cc3C)cc2C1=O
  0.28 | 1.3
- COc1ccccc1N1CCN(c2ncnc3c2oc2ccccc23)CC1
  0.07 | -0.78
- O=C(O)CC(NC(=O)OCc1ccccc1)c1ccccc1 (stereo unspecified)
  0.79 | 0.04
- CCCCCC(=O)Nc1nc(C)c(-c2csc(Nc3ccc(Cl)cc3)n2)s1
  0.49 | 0.64
- CC(C)(C)CN1CCNC(=O)C1CC(=O)N1CCOc2ccccc2C1 (stereo unspecified)
  1.2 | -0.89
- CC(=O)N1c2ccc(N=Cc3cc(Br)cc(Br)c3O)cc2CC1C (stereo unspecified)
  12* | 1.9*

Following part.
Under each structure: KCNQ2 pot | KCNQ2 pot baseline
- O=[N+]([O-])c1cc(F)c(N2CCCCC2)cc1N1CCOCC1
  0.18 | 0.27
- CCCCNC(=S)Nc1ccc2nc3n(c(=O)c2c1)CCCCC3
  1.1 | -0.05
- Cc1nnc(Oc2ccccc2)c2ccccc12
  0.2 | -1.4
- COc1ccc(/C=C/C(=O)NC(=S)N2CCN(c3ccccc3OC)CC2)cc1
  2.2 | -0.17
- O=C(COc1ccccc1[N+](=O)[O-])OCCCOC(=O)COc1ccccc1[N+](=O)[O-]
  0.05 | 0.01
- O=C(Nc1nnc(-c2ccc3c(c2)CCCC3)o1)C1CCCCC1
  0.66 | 0.12
- CCCc1cc(=O)oc2cc(C)cc(OC(C)C(=O)NCCN3CCOCC3)c12 (stereo unspecified)
  1.9 | -1.4
- O=C(NCc1cccc(Cl)c1)N1CCN(S(=O)(=O)c2ccccc2F)CC1
  2.3 | 0.09
- CC1CCN(c2ccc(NC(=S)NC(=O)c3ccc(-c4cccc([N+](=O)[O-])c4)o3)cc2)CC1
  0.66 | 1.2
- CCn1c2ccccc2c2cc(NC(=O)C(C)C)ccc21
  1.4 | 0.36
- CCNC(=O)CC1C(=O)N(CC)C(=S)N1NC(=O)c1ccc(Cl)cc1 (stereo unspecified)
  0.13 | 0.01
- COc1ccc(NC(=O)c2ccc(NS(=O)(=O)c3cccc4cccnc34)cc2)cc1
  0.51 | -0.32
- Cc1ccc(C)c(SCC(=O)Nc2cccc(S(=O)(=O)NC3=NCCCCC3)c2)c1
  1.5 | 0.07
- O=S(=O)(Nc1ccncc1Cl)c1ccc2ccccc2c1
  0.67 | 0.74
- C=CCN(c1ccc(F)cc1)S(=O)(=O)c1cc(C(=O)OCC(=O)N(C)C2CCS(=O)(=O)C2)ccc1Cl (stereo unspecified)
  2.3 | -0.96

Carrying on:
Under each structure: KCNQ2 pot | KCNQ2 pot baseline
- N#C/C(C(=O)N1CCCCC1)=C1\Nc2ccccc2S1
  1.2 | -0.26
- CCOc1ccc(NC(=O)c2cc(SC)ccc2Cl)cc1
  0.25 | 0.04
- COc1cccc(/C=C/C(=O)OCC(=O)c2c[nH]c3ccccc23)c1OC
  1.3 | 0.63
- CCCCN(C(=O)CCSc1ccc(F)cc1)c1c(N)n(Cc2ccccc2)c(=O)[nH]c1=O
  0.55 | 0.26
- O=[N+]([O-])c1ccc(-c2cn3c(n2)SCC3)cc1
  1.9 | 0
- CCCCC(SCC(=O)Nc1ccccc1)C(=O)O (stereo unspecified)
  0.1 | -0.81
- NC1=NC(=O)/C(=C\c2ccc(O)c([N+](=O)[O-])c2)S1
  0.44 | -2.4
- Cn1c(=O)c2c(nc(NCCO)n2CCCc2ccccc2)n(C)c1=O
  0.08 | 0.09
- O=C(Nc1ccccc1C(=O)O)c1ccc2ccccc2n1
  1.5 | 0.17
- COc1cc(S(=O)(=O)N(Cc2cccnc2)Cc2ccco2)ccc1-n1cnnn1
  1.2 | -0.29
- O=Cc1ccc2oc3nc4n(c(=O)c3c(=O)c2c1)CCCS4
  1.2 | -0.45
- CC(=O)N1c2ccc(S(=O)(=O)N3CCCC3)cc2CC1C(=O)NCc1cccc(F)c1 (stereo unspecified)
  0.02 | 0.82
- COc1cccc(CCNC(=O)CC2C(=O)NCCN2Cc2ccc(C)o2)c1 (stereo unspecified)
  0.25 | -4.2
- COc1cccc(/C=C2/C(=O)NN(c3ccc(Br)cc3)C2=O)c1O
  2.7 | 0.48
- CCC(=O)Nc1sc(Cc2ccccc2)c(C)c1C(N)=O
  0.08 | 0.11

The list continues:
Under each structure: KCNQ2 pot | KCNQ2 pot baseline
- CCOC(=O)C1CCN(C(=O)/C=C/c2cc(OC)c(OC)c(OC)c2)CC1
  0.95 | -1.5
- COc1ccc(C2CC(c3cccs3)=NN2C(=O)CCC(=O)O)cc1 (stereo unspecified)
  0.01 | 0.23
- O=C(OC1CCCCC1=O)c1cc(S(=O)(=O)N2CCOCC2)ccc1F (stereo unspecified)
  1.1 | -0.04
- S=C(NCc1cccnc1)Nc1ccc2c(c1)OCO2
  0.37 | -0.08
- O=C(O)c1ccc(NS(=O)(=O)/C=C/c2ccccc2)cc1O
  1.1 | -0.53
- COC(=O)c1c(NC(=O)CC2SC(N)=NC2=O)sc2c1CCC(C)C2 (stereo unspecified)
  2.2 | 3.5
- Cc1cc(NC(=O)CCC2CCCC2)no1
  1.6 | -1.7
- Cc1ccc(OCC(O)CN2CCN(CCO)CC2)c(C)c1 (stereo unspecified)
  0.11 | -0.45
